Screening results as filed in PubChem BioAssay.
RVFV N-RNA inh = inhibitors of Rift Valley Fever Virus nucleocapsid-RNA interaction; % bound, % (test concentration not listed); RVFV N-RNA binding, fluorescence polarization; stronger effect = lower value; AID 651828; actives 0.1% (n = 20,000);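 active means between 0 and 58% in either replicate with normal brightness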;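 further: 100 nL library stock added to about 12 µL; 100% = protein and probe without compound and 0% = probe alone; numbers are from one replicate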
Target sequence (P21700 whole entry, looked up): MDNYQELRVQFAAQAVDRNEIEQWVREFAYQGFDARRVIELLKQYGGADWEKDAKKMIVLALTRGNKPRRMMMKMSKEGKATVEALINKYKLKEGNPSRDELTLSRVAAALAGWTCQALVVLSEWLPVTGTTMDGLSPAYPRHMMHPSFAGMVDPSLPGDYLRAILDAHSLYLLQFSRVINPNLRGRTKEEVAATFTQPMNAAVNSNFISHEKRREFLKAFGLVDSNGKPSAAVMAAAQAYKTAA
Active calls of the source: *; & = joins results of further samples. The list is partial; count on the stated rates, not on these rows.

SMILES,RVFV N-RNA inh
CCc1cc(=O)oc2c(OC(C)=O)c(OC(C)=O)ccc12,99
N#C/C(=C/c1ccccc1)C(=O)NCc1ccccc1,93
c1ccc2c(c1)[I+]c1ccccc1-2,96
Cc1cc(=O)n2[nH]cnc2n1,94
Cc1ccc(NC(=O)CSCc2n[nH]c(=O)[nH]2)c(Br)c1,90
O=C1OC(C(=O)NCc2ccccc2)Cc2ccccc21 (stereo not given),100
O=C1NC(=O)N(Cc2ccccc2)C(=O)/C1=C/c1ccc(O)cc1,95
Cc1nc2c(oc3nc(-c4ccco4)c4c(c32)CC(C)(C)OC4)c(-c2ccccc2)c1C(=O)O,79
CC(C)C(=O)NC1C2CC3CC(C2)CC1C3 (stereo not given),89
CCS(=O)(=O)NCc1csc(C)n1,98
O=c1c2ccccc2nc(CNCC2CCCO2)n1-c1ccc(F)cc1 (stereo not given),92
O=C(NCc1ccncc1)c1ccc(N2CCCCS2(=O)=O)cc1,87
N#CCN1C(=O)c2ccccc2C1=O,93
COC(=O)c1ccc(NC(=O)CCSc2ccccc2)cc1,89
CC/C(=C(\c1ccccc1)c1ccc(OCCN(C)C)cc1)c1ccccc1,94&98&95
NC(=O)CSc1ccccn1,102
O=c1c2ccccc2[nH]c(=S)n1CCO,112
CCOC(=O)c1c[nH]c(=S)n1C,87
CCOC(=O)NC(=S)Nc1ccc(OC)cc1,92
O=C(CCSc1nc2ccccc2o1)Nc1ccc(Br)cc1,94
Cc1c(-c2ccccc2)c(=O)oc2cc(OCC#N)ccc12,93
COc1cc(/C(N)=N/O)cc(OC)c1OC,93
Cc1nn2c3ccccc3nc2n(-c2ccccc2)c1=O,89
C/C(=C\c1ccc(C(=O)O)cc1)c1ccc2c(c1)C(C)(C)CCC2(C)C,96
Nc1nc(CN2CCC(Cc3ccccc3)CC2)nc(Nc2ccccc2)n1,97
Cc1cccc(NC(=O)CC2CCC2)c1,93
Cc1cc(NC(=O)NCc2sccc2C)c(C(F)(F)F)o1,94
COc1ccccc1NC(C)c1cc(Cl)ccc1O (stereo not given),97
Cc1ccc(C(=O)Nc2cc(=O)n(C)c(=O)n2C)cc1,106
CN(C(=O)C1CCCC1)C1CCS(=O)(=O)C1 (stereo not given),102
O=C(c1ccc(Cl)cc1)N1CCN(c2ccc([N+](=O)[O-])c3ncccc23)CC1,98
COC(=O)C1(C(O)C(=O)c2ccc(C)cc2C)CCCCC1 (stereo not given),94
Cc1cc(C)c(OCCCN2CCCC2)c(C)c1,103
CCOC(=O)c1c(NC(=S)N2CCN(C(=O)c3ccco3)CC2)sc2c1CCCCCC2,97
CNC(=S)Nc1cccc(Cn2cc(Cl)cn2)c1,96
N#CC(C#N)=NNc1ccccc1C(N)=O,100
O=c1c2nnn(Cc3ccccc3)c2ncn1Cc1ccc(F)cc1,94
O=C(Nc1ccccc1)Nc1ccc(C(F)(F)F)cn1,94
CN(C)c1ccc(NC(=O)c2cccc(N3C(=O)c4cccnc4C3=O)c2)cc1,99
O=C1NC(=O)C(C(=S)Nc2ccccc2)C(=O)N1,98

23 successive entries already listed:
SMILES,RVFV N-RNA inh
CCOC(=O)c1c[nH]c(=S)n1C,87
CCOC(=O)NC(=S)Nc1ccc(OC)cc1,92
O=C(CCSc1nc2ccccc2o1)Nc1ccc(Br)cc1,94
Cc1c(-c2ccccc2)c(=O)oc2cc(OCC#N)ccc12,93
COc1cc(/C(N)=N/O)cc(OC)c1OC,93
Cc1nn2c3ccccc3nc2n(-c2ccccc2)c1=O,89
C/C(=C\c1ccc(C(=O)O)cc1)c1ccc2c(c1)C(C)(C)CCC2(C)C,96
Nc1nc(CN2CCC(Cc3ccccc3)CC2)nc(Nc2ccccc2)n1,97
Cc1cccc(NC(=O)CC2CCC2)c1,93
Cc1cc(NC(=O)NCc2sccc2C)c(C(F)(F)F)o1,94
COc1ccccc1NC(C)c1cc(Cl)ccc1O (stereo not given),97
Cc1ccc(C(=O)Nc2cc(=O)n(C)c(=O)n2C)cc1,106
CN(C(=O)C1CCCC1)C1CCS(=O)(=O)C1 (stereo not given),102
O=C(c1ccc(Cl)cc1)N1CCN(c2ccc([N+](=O)[O-])c3ncccc23)CC1,98
COC(=O)C1(C(O)C(=O)c2ccc(C)cc2C)CCCCC1 (stereo not given),94
Cc1cc(C)c(OCCCN2CCCC2)c(C)c1,103
CCOC(=O)c1c(NC(=S)N2CCN(C(=O)c3ccco3)CC2)sc2c1CCCCCC2,97
CNC(=S)Nc1cccc(Cn2cc(Cl)cn2)c1,96
N#CC(C#N)=NNc1ccccc1C(N)=O,100
O=c1c2nnn(Cc3ccccc3)c2ncn1Cc1ccc(F)cc1,94
O=C(Nc1ccccc1)Nc1ccc(C(F)(F)F)cn1,94
CN(C)c1ccc(NC(=O)c2cccc(N3C(=O)c4cccnc4C3=O)c2)cc1,99
O=C1NC(=O)C(C(=S)Nc2ccccc2)C(=O)N1,98

More compounds follow:
SMILES,RVFV N-RNA inh
COCc1cc(C)[nH]c(=O)c1C(=O)NC12CC3CC(CC(C3)C1)C2,90
COc1cc2c(cc1NC(=S)Nc1ccc3c(c1)OCO3)oc1ccccc12,93
O=C1NC(=S)NC(=O)C1=C1C=C(c2ccccc2)N(CCN2CCOCC2)C2=C1CCCC2,94
Cc1cc(NC(=O)CCN2C(=O)/C(=C3\SC(=S)N(CCC(=O)Nc4cc(C)on4)C3=O)SC2=S)no1,95
O=C(CC(=O)c1ccc2c(c1)OCCO2)c1ccccc1,102
CC(=NCCN1CCN(C(=O)c2ccccc2)CC1)c1c(C)[nH]n(-c2nc3ccccc3s2)c1=O,93
O=S(=O)(c1ccc2c(c1)CCO2)N1CCCN(c2nccc(C(F)(F)F)n2)CC1,98
Nc1c(C(=O)Nc2ccccc2)c2nc3ccccc3nc2n1CCCN1CCOCC1,99
O=C(CSc1ccccc1)NCCc1ccccc1,97
CCOC(=O)Cc1cc(=O)[nH]c(=O)[nH]1,103
CN=C1CN(O)C(c2ccccc2)=c2cc(Cl)ccc2=N1,102
Cc1ccc(NC(=O)CN2C(=O)S/C(=C/c3ccc4c(c3)n(C)c(=O)n4C)C2=O)cc1C,93
COC(=O)C1=C(NC(=O)c2ccc(N3C(=O)CCC3=O)cc2)CCS1,106
COc1ccc(COc2ccc(Cc3cnc(N)nc3N)cc2OC)cc1,105
O=C(NCC(c1ccco1)S(=O)(=O)c1ccccc1)Oc1ccccc1 (stereo not given),91
COc1ccc(-c2nc(COc3ccc(Cl)cc3Cl)no2)cc1,97
CC(CCc1ccccc1)Nc1ccc2c(c1)OCO2 (stereo not given),90
N#CC(C#N)=Cc1cccn1CCCn1ccnc1,82
c1cc(CSC2=NCCS2)nc(CSC2=NCCS2)c1,93
CN(C)c1ccc(/C=N/S(=O)(=O)c2cccs2)cc1,95
CC(C)=CC(=O)NCCc1ccccc1,91
CCCCc1ccc(NC(=O)COC)cc1,87
Cc1cc(OCCCN2CCCC2)ccc1C(C)C,98
COC(=O)c1sccc1NC(=O)C(C)(C)C,95
CN(C)c1ccc(/C=C(/C#N)c2ccc(C#N)cc2)cc1,102
O=C1C=C(c2ccc(Cl)cc2)OC2(CCCC2)O1,99
CN1C(=O)Oc2ccc(Cl)cc2C1O (stereo not given),100
CSc1nnnn1-c1ccc(C(N)=O)cc1,97
CC(=O)Nc1ccccc1Br,95
C=C1N(c2ccccc2C)C(=O)OC1(C)C,98
COc1cccc(-c2ccc(-c3noc(-c4cccnc4)n3)c(OC)n2)c1,91
CC1CCCN(C/C(O)=C(\C#N)c2nc3ccccc3[nH]2)C1 (stereo not given),93
N#Cc1sc2ncc3c(c2c1N)CCCC3,93
CCN(CC)c1ncc2c(SCC(N)=O)nc(SCC(N)=O)nc2n1,95
Oc1ccc(C=NCc2ccco2)cc1,98
CCN(CC)c1ccc(/C=N/N2CCN(Cc3ccc(Cl)cc3)CC2)c(O)c1,95
CN(CCO)c1ccc(C(F)(F)F)cn1,97
Cn1c(=O)c2[nH]c(SCc3ccc(Cl)c(Cl)c3)nc2n(C)c1=O,94
O=S(=O)(NN1CCOCC1)c1cccc2nonc12,99
CSc1nn(-c2ccccc2)cc1-c1nc(C(C)(C)C)cs1,95
O=c1cccc2n1CC1CC2CN(C(c2ccccc2)c2sc3ncnn3c2O)C1 (stereo not given),94
O=C(c1ccco1)N(Cc1ccccc1)Cc1cn(-c2ccccc2)nc1-c1cccs1,92
N#C/C(C(=O)NCc1ccco1)=c1/s/c(=C/c2ccncc2)c(=O)n1-c1ccccc1,109
CCc1ccc(-n2nc3cc(C)c(NC(C)=O)cc3n2)cc1,100
CCOC(=O)C1=C(C)NC2=C(C(=O)CC(c3ccco3)C2)C1c1ccc(C(F)(F)F)cc1 (stereo not given),94
CNC(=O)NCc1ccc(-c2csnn2)cc1,99
COC(=O)CNc1cc[nH]c(=O)c1C#N,105
CCN=C1S/C(=C\c2ccc(OC)c(OC)c2)C(=O)N1CC,98

Next section
canonical_smiles	RVFV N-RNA inh
C=CCNc1oc(-c2ccccc2C)nc1C#N	103
Nn1c(COc2ccccc2)nnc1SCc1cc(=O)[nH]c2ccccc12	95
COc1ccccc1N1CCN(Cc2cn[nH]c2-c2ccccc2)CC1	96
CN(C)CC(O)COc1ccc(C(C)(C)C)cc1 (stereo not given)	99
Cc1ccc(OCCc2csc(N)n2)cc1	96
O=C(Nc1ccccc1)N(Cc1ccco1)Cc1cccs1	93
COc1ccc(/C=C(\C#N)C(=O)OC(C)(C)C)cc1	92
OC(CSc1ccc(F)cc1)CN1CCN(c2ccc(C(F)(F)F)cn2)CC1 (stereo not given)	101
C=CCOc1cccc(C(=O)NCc2ccccc2)c1	104
CC(Nc1n[nH]c(=O)[nH]c1=O)C(=O)N/N=C/c1ccccc1 (stereo not given)	100
O=C(NCC(c1ccco1)N1CCc2ccccc21)c1ccccc1 (stereo not given)	95
CC(C)(C)C(=O)OCC1OC(n2cnc(C(N)=O)n2)C(O)C1O (stereo not given)	89
Cc1cc(N/C=C(\C#N)C(=O)c2cccs2)no1	113
CC(C)OC(=O)/C(C#N)=C/c1c[nH]c2ccccc12	97
Nc1cccc2c(S(=O)(=O)NC3CCCCC3)cccc12	96
CCCCNC(=O)Nc1ccc(C2SCCS2)cc1	96
C[C@@H](c1ccccc1)N1C(=O)CC[C@H]2CC(=O)CC[C@@H]21	93
CN(C1CCCCC1)S(=O)(=O)c1ccc(C(=O)Nc2ccc3c(c2)C(=O)NC3=O)cc1	97
O=C(Nc1cc(=O)[nH]c(=O)[nH]1)C(c1ccccc1)c1ccccc1	99
O=C(Nc1cccnc1)c1cccnc1C(=O)O	100
NCC(O)C1CCCCCCC1 (stereo not given)	99
O=C(NC(NCc1ccco1)(C(F)(F)F)C(F)(F)F)c1cccnc1	95
CCOC(=O)CS(=O)(=O)c1ccc(C(F)(F)F)cn1	101
N#Cc1sc2nc(-c3ccccc3)ccc2c1N	89
CN1CCC[C@@H]1Cc1c[nH]c2ccc(Nc3ncccc3[N+](=O)[O-])cc12	95
CCOC(=O)NC1CCN(CC)CC1	92
CCc1nc2cc(C)c(C)cc2nc1CC	94
CCOc1cccc2c1CCNC2=O	94
CN(C)CC#Cc1ccc(C=C(C#N)C#N)cc1	96
COC(=O)c1ccsc1N1C(=O)C=CC1=O	84
NNC(=O)c1cc(-c2ccccc2)nc2ccccc12	99
CSc1nn2c(=O)c(C)nnc2s1	97
S=C(c1cccs1)N1CCOCC1	92
c1ccc2c(c1)c1ccccc1c1nn3nnnc3nc21	97
O=C1NC(=O)/C(=C/C(=O)c2ccccc2)S1	106
CC(C)(C)NC(=O)Cn1cc(S(=O)(=O)Cc2ccccc2)c2ccccc21	91
Cc1ccc2c(c1)CCCN2C(=O)c1ccc2c(c1)OCO2	96
CCn1c(=O)c2c(O)cc(=O)oc2c2ccccc21	91
CC(C)NS(=O)(=O)c1ccc(OCC(=O)NC2CCCCC2)c(Cl)c1	90
COc1ccccc1N1CCN(C2C3CC4CC(C3)CC2C4)CC1 (stereo not given)	95
Cc1[nH]cnc1CN1CCc2c(c3ccccc3n2C)C1=O	100
O=C(CCn1cnc2ccccc2c1=O)Nc1ccccc1C(F)(F)F	98
CCN(CC)C(=O)CCN1C(=O)c2cc(Cl)c(Cl)cc2C1=O	94
COc1ccc(-c2cc(-c3ccccc3)nc(N3CCCCC3)n2)cc1OC	95
CC(C)NC(=S)NCc1cccnc1	90
O=C(NC(=S)NCc1cccnc1)c1ccc2c(c1)OCO2	95
CCn1cc(C(=O)c2ccccc2)c2ccccc21	91
NC(=S)N/N=C/c1ccccc1O	91
N[C@H](C(=O)O)[C@H](O)C(=O)O	98
CCOC(=O)N1CCN(CN2C(=S)SC3=NC(=O)CCCN32)CC1	96

The list continues.
canonical_smiles	RVFV N-RNA inh
O=C1CSCc2ccccc21	94
NC(CO)C(=O)N/N=C/c1ccc(O)c(O)c1O (stereo not given)	51*
COc1ccc(CCNC(=O)CN2CCC(C)CC2)cc1	102
CC1=NN(C(=O)c2ccccc2)C(O)(C(C)(C)C)C1 (stereo not given)	95
O=C(Nc1ccc(-c2n[nH]c(=S)o2)cc1)c1ccccc1Br	97
C#CCn1c(=NC(=O)CC)sc2ccccc21	102
COCc1cc(=O)[nH]c(-c2ccc(Cl)cc2)n1	104
O=C(NCc1ccccc1)C1CCCN(S(=O)(=O)c2ccccc2)C1 (stereo not given)	91
CC1C(=O)N2CCCc3cc(S(=O)(=O)N4CCCCC4)cc1c32 (stereo not given)	97
C#CCSC1=N/C(=C/N(C)C)C(=O)N1	97
Nc1ccnc2cc(C(F)(F)F)ccc12	94
